Mtb growth = Mycobacterium tuberculosis H37Rv growth inhibition, cell based, confirmatory dose response (AID 1949) | hit rate 1.6% among 100,000 | most inactive calls were filed without a number and no value below 0 was filed | M. tuberculosis H37Rv growth inhibition | inhibition, % at 10 µg/mL, or IC50 in µg/mL where a hit was titrated;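 active = confirmed in a dose series; inconclusive = about 50% or more but not retested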;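 also: bacteria grown 7 days with compound before Alamar blue readout; 0% = untreated bacteria and 100% = reference antibiotic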
Numbers without * were called inactive; i = inactive; ? = inconclusive. Not all compounds are listed; count on the stated rates, not on these rows.

structure,Mtb growth
CCc1ccc(N(CC(=O)Nc2ccc3c(c2)OCO3)S(C)(=O)=O)cc1,i
O=S(=O)(N1CCCCC1)n1nnc2ccccc21,i
CN(C)C(=S)Nc1ccc2nc(-c3ccccn3)c(-c3ccccn3)nc2c1,i
COc1ccc(Oc2ccc(NS(=O)(=O)c3ccc(NC(C)=O)cc3)cc2)cc1,0%
COc1ccc(N2C(=O)CC(NCc3ccc4c(c3)n(C)c(=O)n4C)C2=O)cc1 (centres undefined),i
Cn1nccc1/C=C(/C#N)S(=O)(=O)c1ccccc1,i
COCc1cc(C)nc2sc(C(=O)N3CCc4ccccc43)c(N)c12,15%
COc1cc(OC)c(NC(=O)c2ccc(Br)o2)cc1Cl,i
COc1cccc(NC(=O)CSCc2c(Cl)cccc2Cl)c1,i
CCOc1ccc(N2CC(C(=O)NC3CC(C)(C)NC(C)(C)C3)CC2=O)cc1 (centres undefined),i
Cn1nnnc1SCc1ccccc1C#N,i
Nc1nnc(COc2cccc(Cl)c2Cl)s1,i
Cc1ccc(NC(=O)CSc2nc(-c3ccccc3)cc(=O)[nH]2)cc1Cl,i
COc1ccccc1N1CCN(C(=O)CN(C)S(=O)(=O)c2ccc(Br)cc2)CC1,i
COc1ccc(C(=O)Nc2ccccc2C(=O)N2CCN(CCO)CC2)cc1,i
CN(C(=O)Cn1cc(C#N)c2ccccc21)c1ccccc1,i
CCc1ccc(NC(=O)CN(c2cc(Cl)ccc2C)S(C)(=O)=O)cc1,i
Cc1ccc(C(=O)NC(=S)NNC(=O)c2ccc(NC(=O)C(C)C)cc2)cc1Br,?
COc1cc(OC)cc(C(=O)NC(=S)N2CCCCCC2)c1,2.8µg/mL*
Clc1ccc(SCCOCCN2CCCC2)cc1,i
Cc1[nH]c(=S)n(-c2ccccc2)c1C,1%
CN1CCN(NC(=O)Nc2cccc(Cl)c2Cl)CC1,i
CCn1c(Cc2ccccc2)nnc1SCC(=O)Nc1ccc(C)cc1Br,i
CCn1c(=O)n(CC)c2cc(NC(=O)c3ccccc3Cl)c(Br)cc21,i
Cc1ccc(CNC(=O)C2CC(=O)N(c3ccc(C)cc3)C2)cc1 (centres undefined),i
COc1ccc(Oc2ccc(NC(=O)c3cccc(OC)c3)cc2)cc1,8%
COc1ccc(CNC(=O)C(=O)c2c[nH]c3ccccc23)cc1,1%
CC1CCCN(CCOc2ccccc2OC(C)C)C1 (centres undefined),i
COc1ccc(C(=O)N2CCN(C(=O)c3ccc(F)cc3)CC2)cc1OC,i
O=C(Nc1ccccc1)OCCOc1ccccc1,i
COc1ccc(NS(=O)(=O)c2ccc(NC(=O)c3ccccc3Br)cc2)cc1,i
CCOC(=O)c1sc(NC(=S)Nc2ccc(OC(F)F)c(Cl)c2)c(C(=O)OCC)c1C,i
CCOC(=O)c1c(C)oc2ccc(N(C(=O)c3ccncc3)S(=O)(=O)c3ccc(F)cc3)cc12,i
O=S(=O)(O)c1cc(I)c(O)c2ncccc12,1%
CCOc1cc(C)c(S(=O)(=O)N2CCCCC2)cc1C,i
CC(C)NS(=O)(=O)c1ccc(OCC(=O)NC2CCCCCC2)cc1,i
COc1ccc(C(Nc2ccccn2)c2ccc3ccc(C)nc3c2O)cc1C (centres undefined),5%
NS(=O)(=O)c1ccc(NC(=S)Nc2ccc(C(=O)N3CCOCC3)cc2)cc1,i
Fc1ccc(NC(=S)N2CCOCC2)cc1Cl,i
CC(NC(=O)c1nn(C)c(=O)c2ccccc12)c1ccccc1 (centres undefined),i
CCc1ccc(NC(=O)CN(c2ccc(C)cc2)S(=O)(=O)c2ccc(OC)c(OC)c2)cc1,i
O=C(COc1ccc(Br)cc1)NC(=S)Nc1ccc(C(=O)O)cc1,i
COc1ccccc1C/C(N)=N/OC(=O)c1cccc([N+](=O)[O-])c1C,0%
CC(C)OC(=O)c1cc2c(nc1SCC#N)CCCCC2,i
CCc1ccccc1NC(=O)C1CCN(S(=O)(=O)c2ccccc2)CC1,2%
CCc1ccc(OCC(=O)Nc2cccc([N+](=O)[O-])c2C)c(Br)c1,i
COc1cc(C2NC(=O)NC(C)=C2C(=O)Nc2ccccc2Cl)ccc1OC1CCCC1 (centres undefined),0%
CCC(C)NC(=O)c1ccc(NC(=O)C2COc3ccccc3O2)cc1 (centres undefined),4%
O=C(Nc1ccccc1C(=O)NC(Cc1ccccc1)C(=O)O)c1ccccc1 (centres undefined),0%
NC1=NC(=O)CC(C(=O)Nc2ccccc2C(F)(F)F)S1 (centres undefined),i
COc1ccc(-c2nnc(SCC(=O)Nc3ccc(Br)c(C)c3C)n2C)cc1,1%
COC(=O)c1ccc(NC(=O)/C(=C\C=C\c2ccccc2)NC(=O)c2ccccc2Cl)cc1,i
CCCCC(=O)Nc1ccc(C(=O)Nc2cc([N+](=O)[O-])ccc2OC)cc1,0%
Cc1ccccc1C(=O)Nc1ccc2oc(-c3ccc(F)cc3)nc2c1,5%
CCOc1ccc2nc(NC(=O)c3ccco3)sc2c1,2%
CCOc1ccc2nc(NS(=O)(=O)c3ccc(F)cc3)sc2c1,i
CCOc1ccccc1NC(=O)c1c(NC(=O)COc2ccccc2)sc2c1CCCC2,i
O=S(=O)(NC(=S)Nc1ccccc1)c1cccs1,i
Cn1nc([N+](=O)[O-])nc1Oc1cccc2cccnc12,i
C=CCOc1ccccc1CNc1ccc(C(=O)O)cc1,i

Next section.
structure,Mtb growth
CC(=O)c1ccc(NC(=O)Nc2cccc(Cl)c2Cl)cc1,i
CN(C)S(=O)(=O)c1ccc(NC(=O)COc2ccccc2Cl)cc1,i
O=[N+]([O-])c1ccc(Sc2nnc(COc3ccccc3)n2-c2ccccc2)c2cccnc12,i
CC(=O)Nc1ccc(OC(=O)CN2C(=O)CN(c3ccc(Br)cc3)C2=O)cc1,i
COCCCNC(=O)Cc1ccc(C)cc1,i
COc1ccc(N2CCN(C(=O)COc3ccc(Br)c(C)c3)CC2)cc1,4%
COc1ccc(C(=O)Cc2ccc(F)cc2)c(OC)c1,8%
Cc1ccc(F)c(NC(=O)CSc2nnc(C)s2)c1,i
COc1cc(C(=S)N2CCOCC2)cc(I)c1OC(=O)c1ccccc1C,i
COc1cc(S(=O)(=O)Nc2ccccc2C)ccc1NC(=O)c1ccccc1C,i
CN(c1ccccc1)S(=O)(=O)c1ccc(N)cc1,7%
COC(=O)c1c(NC(=O)CN2C(=O)c3ccccc3S2(=O)=O)sc2c1CCCC2,i
COc1ccc(OC)c(NC(=O)C2CC(=O)N(c3ccccc3)C2)c1 (centres undefined),7%
COc1cc([N+](=O)[O-])ccc1NC(=O)NCc1ccco1,i
Cc1cccc(N2CCN(C(=O)C(C)Oc3cccc(Cl)c3)CC2)c1C (centres undefined),i
CCc1ccc(S(=O)(=O)Nc2cccc(-c3cn4cccc(C)c4n3)c2)cc1,i
COc1cccc(OCCN2CCCC(C)C2)c1 (centres undefined),?
Cc1cc(C)nc(SCC(=O)c2c(C)[nH]c3ccccc23)n1,i
CC(C)c1ccc(C(=O)NC(=S)Nc2cc(C(=O)O)ccc2Cl)cc1,16%
Cc1ccc(C(=O)Nc2cccc([N+](=O)[O-])c2C)o1,i

Some of the entries above, set out differently.
O=[N+]([O-])c1ccc(Sc2nnc(COc3ccccc3)n2-c2ccccc2)c2cccnc12
- Mtb growth: i
O=C(Nc1ccccc1)OCCOc1ccccc1
- Mtb growth: i
COc1ccc(OC)c(NC(=O)C2CC(=O)N(c3ccccc3)C2)c1 (centres undefined)
- Mtb growth: 7%

Gathered by group, the compounds so far containing a furan ring, fused or not.
structure,Mtb growth
COc1cc(OC)c(NC(=O)c2ccc(Br)o2)cc1Cl,i
CCOC(=O)c1c(C)oc2ccc(N(C(=O)c3ccncc3)S(=O)(=O)c3ccc(F)cc3)cc12,i
CCOc1ccc2nc(NC(=O)c3ccco3)sc2c1,2%
COc1cc([N+](=O)[O-])ccc1NC(=O)NCc1ccco1,i
Cc1ccc(C(=O)Nc2cccc([N+](=O)[O-])c2C)o1,i

(more compounds)
structure,Mtb growth
CC(Nc1nc(=S)nc(Nc2ccc(F)cc2)[nH]1)c1ccccc1 (centres undefined),2%
CS(=O)(=O)N(CC(=O)N1CCC(Cc2ccccc2)CC1)c1ccc2c(c1)OCO2,i
COc1ccc2nc(NC(=O)CCCOc3ccccc3OC)sc2c1,i
Cc1ccc(NC(=O)CNC(=O)c2cccs2)cc1Cl,i
CC(C)CC(=O)NC(=S)Nc1nc(-c2cccc3ccccc23)cs1,2%
COc1cccc(C(=O)Nc2ccc(O)cc2C(=O)O)c1,i
CCN(CC)C(=O)c1sc(NC(=S)NCc2ccco2)c(C(=O)OC)c1C,i
COC(=O)C1=CN(c2ccc(Cl)cc2)C=C(C(=O)OC)C1c1ccc(OC)cc1,i
COc1cc(C#N)ccc1OCc1ccccc1F,i
Cc1cc(C(C)(C)C)cc(S(=O)(=O)Nc2ccc(C(=O)N3CCCCC3)cc2)c1C,i
CCOC(=O)c1cnc(Nc2nc3ccccc3o2)nc1CN1CCN(c2ccccc2)CC1,i
c1ccc(-c2nnc3n2NC(c2ccc4c(c2)OCO4)S3)cc1 (centres undefined),0%
CCOc1ccc2nc(NC(=O)c3cc(Br)ccc3Cl)sc2c1,i
O=C(O)COc1c(Cl)cc(Cl)cc1Cl,2%
CN(CC(=O)Nc1ccccc1C(C)(C)C)S(=O)(=O)c1ccc(Cl)cc1,i
CC(C)c1ccc(NC(=O)c2cc(Br)ccc2Cl)cc1,i
Cc1cc([N+](=O)[O-])nn1Cc1ccc(Cl)c(Cl)c1,i
CCOC(=O)c1cc(C(C)C)sc1NC(=O)C1C2C=CC(C2)C1C(=O)O (centres undefined),i
N#Cc1cc(Cl)ccc1OCc1ccccc1,i
CCc1cc(=O)oc2c(C)c(OC(=O)c3ccc(Cl)cc3Cl)ccc12,4%
CCCNC(=O)c1ccccc1NC(=O)c1ccc(OC)cc1,i
CC1=CC(C)(C)N2C(=O)C(=O)c3cc(OC(=O)CN4C(=O)c5ccccc5C4=O)cc1c32,i
N/C(=N\OC(=O)c1ccc(Cl)c(Cl)c1)c1cccnc1,11%
Oc1ccc(NCc2ccc(OCc3cccs3)cc2)cc1,11%
CC(C)=CC1C(C(=O)Nc2ccc(C)cn2)C1(C)C (centres undefined),1%
CCOc1ccc(-n2c(-c3cc(OC)c(OC)c(OC)c3)n[nH]c2=S)cc1,i
O=C(c1ccc2c(c1)OCCO2)N1CCC(Cc2ccccc2)CC1,i
CCOc1cc(S(=O)(=O)N2CCCCCC2)ccc1F,i
Cc1cccc(OCC(=O)N2CCN(Cc3ccccc3C)CC2)c1,i
O=C(c1cc2nc(-c3ccccc3)cc(-c3ccccc3)n2n1)N1CCN(C(=O)c2ccco2)CC1,47%
Cc1ccccc1Cn1c(Cc2ccccc2)nc2ccccc21,6%
COc1ccc(-c2cc(=O)oc3cc(OCc4cccc(OC)c4)ccc23)cc1,i
Cc1c(C(=O)NC(C)C2CCCO2)oc2ccccc12 (centres undefined),i
C=CCSc1nnc(COc2ccccc2C)n1-c1ccccc1,4%
COc1cc(OC)cc(C(=O)NCc2ccc(Cl)cc2Cl)c1,i
N#CCCCN1C(=O)C(O)(CC(=O)c2ccc3c(c2)OCCO3)c2ccccc21 (centres undefined),i
COC(=O)C1=CN(C(C)C)C=C(C(=O)OC)C1c1cccc(OC)c1,i
COc1ccc(CSCC(=O)Nc2c(C)cccc2C(C)C)cc1,0%
Cc1nn2c(-c3ccccc3)nnc2c2ccccc12,?
COc1cccc(C(=O)N2CCN(S(=O)(=O)c3ccc(Cl)cc3)CC2)c1,i
CC(=O)c1ccc(NC(=O)CSc2nc3ccc(C)cc3[nH]2)cc1,i
Cc1nnc(SCC(=O)Nc2cc(C(F)(F)F)ccc2Cl)s1,i
Cc1ccc(NC(=O)c2c(F)c(F)c(F)c(F)c2F)c([N+](=O)[O-])c1,?
N#C/C(=C\c1c[nH]c2ccccc12)c1nc2ncc(Br)cc2[nH]1,1%
C=CCNCCCCOc1cccc(OCC)c1,i
CCn1c(=S)[nH]c2nc3c(cc2c1=O)CCCC3,i
O=C(CSc1nnc(-c2ccccc2)n1-c1ccc(F)cc1)Nc1ccc(Br)cc1,i
CCc1c(C)c2ccc(OCc3ccc(F)cc3F)c(C)c2oc1=O,i
Cc1oc2ccc(OC(=O)c3ccco3)cc2c1C(=O)OC(C)C,23%
Cc1cc(Oc2ccccc2)nc(SCC(N)=O)n1,i
CCC(=NCCc1c[nH]c2ccccc12)c1c(O)n(-c2cccc(F)c2)c(=O)[nH]c1=O,i
C=CCOc1ccc(CNCCO)cc1OC,i
CN(C(=O)COc1cc(Cl)c(Cl)cc1Cl)c1ccccc1,i
Cc1ccc(-c2cc(C(=O)N3CCCC(C)C3)c3ccccc3n2)c(C)c1 (centres undefined),i
CC(=O)c1ccc(NC(=O)COc2ccccc2C(=O)NC2CCCCCCC2)cc1,1%
COc1ccc(CN2CCN(Cc3cccc(Br)c3)CC2)cc1OC,2%
CCCC(NS(=O)(=O)c1ccc(C)cc1)C(=O)Oc1ccc2c(C)cc(=O)oc2c1 (centres undefined),i
Cc1[nH]c2ccccc2c1C(=O)CSc1nnc2ccccn12,i
Cc1cc(C=O)c(C)n1-c1ccc2c(c1)OCO2,i

Screening results deposited in PubChem by Southern Research Institute.
